# Compound activity (PubChem BioAssay)
# fixLJ activator = activators of Burkholderia fixLJ two-component system, primary screen, B. multivorans, GFP reporter; B. multivorans fixK-promoter GFP reporter, 18 h; hits give high values; 0.3% of 29,000 active; z-score (no concentration beside the values);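 active means replicate mean overnight rise in green fluorescent reporter signal, 3 or more SD over negative controls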;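 further: score is relative to vehicle wells of the plate; 300 nL library stock went into each well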
# * marks the source's active call; other numbers are inactive results. Only part of the results is shown, so the mix of outcomes need not match the whole.
SMILES,fixLJ activator
COCCCN1CC2(CCC1=O)CCN(C(=O)c1ccc3oc(C)cc3c1)CC2,-1.76
COc1cc2c(cc1OC)C1(CCN(C(=O)c3cnccn3)CC1)OCC2,-1.18
COc1cc(OC)cc(C(=O)N2CC(=O)Nc3ccc(Cl)cc3C2c2ccccc2)c1 (stereo unspecified),0.16
CCc1nn2c(=O)cc(CN3CCCCC3CCc3cccs3)nc2s1 (stereo unspecified),-0.85
CCc1ccc(C(=O)N2CCN(C(C)=O)C3CS(=O)(=O)CC32)cc1 (stereo unspecified),-0.56
CCc1cccc(CC)c1NC1=NS(=O)(=O)c2ccccc21,-0.8
Cc1cc(C(=O)N2CCC3(CC2)c2nc[nH]c2CCN3CC(C)C)cs1,-0.67
O=C1NC(NS(=O)(=O)c2ccccc2)(C(F)(F)F)C(=O)N1c1ccc(F)cc1 (stereo unspecified),-1.96
CCc1ccc(OCc2nc(-c3ccc(OC)c(OC)c3)no2)c(Br)c1,0.49
COc1ccc(C2C(C(=O)Nc3ccc(C)cc3C)=C(C)Nc3nc(SCc4cccc(C)c4)nn32)c(OC)c1 (stereo unspecified),0.98
CC1CN(CCC(=O)NCCC2CN(C)CCO2)CC(C)O1 (stereo unspecified),-0.46
CCOC(=O)c1c(-c2ccccc2)csc1NC(=O)c1cc(-c2cccc(Cl)c2)on1,-1.29
COc1cc2c(cc1OC)C1(CCN(C(=O)c3cc(C(F)F)[nH]n3)CC1)OCC2,0.61
Cc1nn(Cc2noc(C(=O)NCc3cccc(F)c3)n2)c(C)c1Br,-2.04
COC(=O)CC1Oc2ccc(Cl)cc2-n2cc(-c3ccc(C)cc3)nc21 (stereo unspecified),0.77
Cc1ccc(NC(=O)c2c(NC(=O)c3ccco3)sc3c2CCC(C(C)(C)C)C3)c(C)c1 (stereo unspecified),0.36
CC(C)C(NC(=O)N1CCS(=O)(=O)CC1)c1nccn1C (stereo unspecified),-1.39
CCC(C)CCCCC(=O)NC(CCN)C(=O)NC(C(=O)NC(CCN)C(=O)NC1CCNC(=O)C(C(C)O)NC(=O)C(CCN)NC(=O)C(CCN)NC(=O)C(CC(C)C)NC(=O)C(Cc2ccccc2)NC(=O)C(CCN)NC1=O)C(C)O (stereo unspecified),-2.36
O=C1CC(C(=O)NCC2CCN(C(=O)CCc3ccccc3Cl)CC2)CN1 (stereo unspecified),-0.7
Cc1cccc(N2C(=O)C(CC(=O)Nc3cccc(F)c3)N(CCc3ccncc3)C2=O)c1 (stereo unspecified),-0.45
CCOC(=O)c1cnc2c(C)cc(C)cc2c1Nc1ccc(OCc2ccccc2)cc1,1.74
COc1cc(C(=O)NCCSc2c(-c3ccccc3)[nH]c3ccccc23)cc(OC)c1OC,-0.24
CCS(=O)(=O)Nc1ccc(C(=O)NC(C)c2nncn2C(C)C)cc1 (stereo unspecified),-1.52
CCCCN1C(=O)C(O)(CC(=O)c2ccc(CC)cc2)c2cc(Br)ccc21 (stereo unspecified),0.16
COc1ccc(-c2c(C#N)c(N)nc3c2CN(Cc2cccnc2)CC3)cc1,0.32
O=C(NCCc1ccc(Cl)cc1)c1cc2c(s1)-c1ccccc1OC2,0.37
O=C1COc2cc(C(=O)NC3CC(c4cc(=O)[nH]c(C5CC5)n4)C3)ccc2N1 (stereo unspecified),-0.9
COc1cc2[nH]c(=O)n(Cc3ccc(C(=O)N4CCN(c5cccc(C)c5C)CC4)cc3)c(=O)c2cc1OC,-0.41
CCN(CC)CCCNC(=O)CCC(=O)NNc1nc2ccccc2c2nc(C)nn12,0.72
Cn1cnnc1CCC(=O)N1CC(c2ccccc2)C2C1C1CCN2CC1 (stereo unspecified),-0.08
CN(c1ccccc1C(=O)O)S(=O)(=O)c1ccc2[nH]c(=O)oc2c1,-0.85
CCOc1ccc(-c2nc(Cn3ccn4nc(-c5ccc(OCC)c(Cl)c5)cc4c3=O)c(C)o2)cc1,0.87
CS(=O)(=O)NC1CCN(Cc2ccc(-c3ccccc3Cl)o2)CC1,-4.91
CC(C)C1(NS(=O)(=O)CCOc2ccccc2F)CC1,-1.17
COCCN1CC2(CCCN(C(=O)c3cccn4cnnc34)C2)CCC1=O (stereo unspecified),-1.79
COC(=O)c1ccc(OC)c(Cn2c(=O)n(-c3ccc(C)cc3)c(=O)c3c2cnn3C)c1,-2.03
COc1ccc(CCNc2nc(-c3ccc(OC)c(OC)c3)cc(C(F)(F)F)n2)cc1OC,1.59
CCOc1ccc(N(CC)S(=O)(=O)c2cc(Br)cc3c2N(C(C)=O)C(C)C3)cc1 (stereo unspecified),0.02
Cc1ccc(Cn2c(SCc3ccc(C(=O)N4CCCCC4)cc3)nc3ccncc32)cc1,-3.84
Cc1nc(-c2ccc(C(=O)N3CCOC(c4ccccc4)C3)cc2)c(C)[nH]1 (stereo unspecified),-1.64

# The last five records of the part before come first, to join the parts.
SMILES,fixLJ activator
COC(=O)c1ccc(OC)c(Cn2c(=O)n(-c3ccc(C)cc3)c(=O)c3c2cnn3C)c1,-2.03
COc1ccc(CCNc2nc(-c3ccc(OC)c(OC)c3)cc(C(F)(F)F)n2)cc1OC,1.59
CCOc1ccc(N(CC)S(=O)(=O)c2cc(Br)cc3c2N(C(C)=O)C(C)C3)cc1 (stereo unspecified),0.02
Cc1ccc(Cn2c(SCc3ccc(C(=O)N4CCCCC4)cc3)nc3ccncc32)cc1,-3.84
Cc1nc(-c2ccc(C(=O)N3CCOC(c4ccccc4)C3)cc2)c(C)[nH]1 (stereo unspecified),-1.64
O=C(Nc1cccc(F)c1)c1ccc2c(c1)N(Cc1ccccc1)C(=O)c1ccccc1S2(=O)=O,-0.82
Cc1ncn(CCNC(=O)c2ccnc(-n3cnnc3)c2)c1C,-0.21
Cn1c(=O)oc2cc(S(=O)(=O)N3CCCC(C(=O)NCc4ccccc4Cl)C3)ccc21 (stereo unspecified),-1.63
Cc1ccc(CNC(=O)CN2CCN(Cc3ccc(F)cc3Cl)C2=O)cc1,-0.78
COc1ccc(C(=O)NCc2nc(-c3cccc(C)c3)no2)cc1OC,-1.44
Cc1cccc(C)c1NC(=O)Cn1c(=O)n(Cc2ccco2)c(=O)c2ccc(C(=O)NC3CCCC3)cc21,-2.24
Cc1ccc(NC(=O)CSc2nnc(C)c(=O)[nH]2)cc1,-1.57
COc1cc2c(cc1OC)C1(CCN(C(=O)c3n[nH]c4c3CCC4)CC1)OCC2,-0.08
COc1ccc(CCNC(=O)c2cc(=O)c3ccc(C)cc3o2)cc1OC,-0.12
COc1cccc(CNc2nc3ccccc3c3nc(-c4cccc(C)c4)nn23)c1,-1.9
COCCNc1nc2c(c(=O)n(Cc3cccc(Cl)c3)c(=O)n2C)n1C,-2.07
CN1C(=O)C(CC(=O)NCCc2ccco2)(Cc2ccccc2)c2ccccc21 (stereo unspecified),-0.52
Cc1nc2c3ccccc3nc(NNC(=O)CCC(=O)N3CCN(c4cccc(Cl)c4)CC3)n2n1,-1.1
CCOc1cccc(OCCCn2c(-c3ccc(Br)cc3)nc3ccccc3c2=O)c1,-1
Cc1ccc2c(c1)N(CC(=O)NCCc1ccccc1)C(=O)CO2,-1.73
O=C(CCC1CCCC1)N1CCC2(CCC(=O)N(Cc3ccncc3)C2)CC1,1.51
CCOc1cc2sc(N3CCC(C(=O)Nc4ccc(C)cc4C)CC3)nc2cc1Br,-1.47
COc1ccc(NC(=O)CNC(=O)Cn2c(C)cc3ccccc3c2=O)c(OC)c1,-0.18
CCCN(Cc1cccc(Cl)c1)C(=O)c1cc2n(n1)CC(O)CNC2=O (stereo unspecified),-1.27
COc1ccc(C(=O)Nc2ccccc2)cc1S(=O)(=O)Nc1ccc(Br)cc1,-1.83
COc1ccc(-n2c(SCc3nc(-c4ccc(Cl)cc4)no3)nnc2-c2ccncc2)cc1,-0.21
COC(=O)c1c(NC(=O)c2cc(OC)c(OC)c(OC)c2Br)sc2c1CCC(C)C2 (stereo unspecified),-0.04
O=c1c2c3c(sc2n(Cc2ccccc2F)c(=O)n1-c1ccc(Cl)cc1)CCCC3,-2.12
Cc1cc(N2CCN(c3cccc(C)c3C)CC2)n2cnnc2n1,1.41
c1csc(C2=NC(c3ccncc3)=Nc3ccccc3N2)c1,0.16
COc1ccc2c(c1)c(=O)c(S(=O)(=O)c1ccc(C)cc1)cn2Cc1ccccc1C,-1.6
Fc1ccc(C2=NC(c3cccc(C(F)(F)F)c3)=Nc3ccccc3N2)cc1,0.42
COc1cccc(C(=O)CC2(O)C(=O)N(Cc3ccccc3)c3ccccc32)c1 (stereo unspecified),-0.11
CCC(=O)N1CCN(C(=O)c2cc(C3CC3)[nH]n2)C2CS(=O)(=O)CC21 (stereo unspecified),-1.29
CCCCn1cnc2cc(NCc3ccc(OCC)cc3)ccc21,-2.46
Cc1cc(N2CCN(C(=O)CCCn3cncn3)CC2)nc(-c2ccccc2O)n1,-1.78
O=C(CSc1oc(-c2ccco2)nc1S(=O)(=O)c1ccc(Cl)cc1)c1ccc(Cl)cc1,-2.08
COc1ccc(NC(=O)[C@@H](c2ccccc2)N2Cc3ccccc3C2=O)cc1OC,-1.06
Cc1ccc(C)c(Cn2c(=O)n(-c3ccc(F)cc3)c(=O)c3sc4ccccc4c32)c1,-0.26
COC(=O)c1cc2sc(C)cc2n1CC(=O)Nc1ccc(C)cc1Cl,-1.91
Cc1ccc(-n2nc(CO)c(C(=O)NCc3cccs3)n2)cc1C,0.5
COc1ccc(NC(=O)CC2C(=O)N(c3ccc(OC)cc3)C(=O)N2CCC2=CCCCC2)cc1 (stereo unspecified),-1.27
COc1ccc(C(=O)N(Cc2cc(OC)c(OC)c(OC)c2)CC2CCCO2)cc1 (stereo unspecified),-1.29
CCc1ccc(NC(=O)Cn2c(=O)oc3cc(S(=O)(=O)N4CCCCCC4)ccc32)cc1,-3.05
Cc1ccc(CCNC(=O)CCCn2c(=O)c3ccccc3n(Cc3ccccc3C#N)c2=O)cc1,-1.26
CCn1nc(C(C)C)cc1C(=O)Nc1cccc(NC(=O)c2cccnc2)c1,-0.63
CCN1CCC(CNC(=O)N2CCN(Cc3ccccc3F)C(=O)C2)C1 (stereo unspecified),-2.43
CCNC(=O)C1CC(N)CN1C(=O)c1ccc(OC)c(F)c1F (stereo unspecified),0.43
COc1cccc(NC(=O)Nc2ccc3snnc3c2)c1,-3.97
CC(C)COc1ccc(Nc2ncnc3ccc(Br)cc23)cc1,-0.93
COc1cc(C2NC(=O)N(C)C3=C2C(=O)N(c2cccc(Cl)c2)C3)ccc1O (stereo unspecified),-0.37
COc1cccc(C(=O)NC(=O)Nc2ccc(-c3cc(C(F)(F)F)nn3-c3ccccc3)cc2)c1,-0.84
CCOc1ccc(-c2nc(-c3ccccc3)c(-c3ccccc3)[nH]2)cc1OCC,1.52
CCOC(=O)c1cccc(NC(=O)C2CCN(S(=O)(=O)c3ccc4c(c3)oc(=O)n4C)CC2)c1,-1.22
Cc1cc(C(=O)NC2CCCN(Cc3cccnc3)C2)on1 (stereo unspecified),0.58

# Exported with tabs: part of the list above.
Molecule	fixLJ activator
CCn1nc(C(C)C)cc1C(=O)Nc1cccc(NC(=O)c2cccnc2)c1	-0.63
CCN1CCC(CNC(=O)N2CCN(Cc3ccccc3F)C(=O)C2)C1 (stereo unspecified)	-2.43

# Quoted at random: 2 entries already listed, in no set order.
SMILES,fixLJ activator
Cc1cc(C(=O)NC2CCCN(Cc3cccnc3)C2)on1 (stereo unspecified),0.58
CC(C)COc1ccc(Nc2ncnc3ccc(Br)cc23)cc1,-0.93

# Next section.
SMILES,fixLJ activator
O=C(NCCCc1nc2ccccc2n1Cc1ccccc1F)c1ccco1,-0.2
CN1CCCC(CCNC(=O)c2nn(C)c3c2CCCC3)C1 (stereo unspecified),0.38
CN=C(NC#N)NCCSCc1csc(N=C(N)N)n1,-1.18
CCc1ccc(C(=O)c2cn(CC(=O)Nc3ccc4c(c3)OCO4)c3ccc(F)cc3c2=O)cc1,-1.92
O=C1O[C@@H](CO)[C@H](O)[C@@H](O)[C@@H]1O,-0.27
COc1cccc(CNC(=O)Cn2ncc3c4ccccc4n(Cc4ccccc4)c3c2=O)c1,-2.13
COc1cc(-c2nc3sccn3c2Nc2c(C)cccc2C)ccc1O,1.13
Cc1ccccc1-c1nc(CS(=O)(=O)CC(=O)Nc2c(C)cccc2C)c(C)o1,0.12
Cc1cccc(NC(=O)c2cnn(-c3ccccc3)c2-n2cccc2)c1C,-0.27
CC(C)c1ccc(NC(=O)Cn2cc(S(=O)(=O)N3CCN(c4ccccc4F)CC3)c3ccccc3c2=O)cc1,-0.3
CN(C)c1nc(-c2ccncc2)nc2c1CCN(C(=O)c1ccc(O)cc1)C2,-5.02
c1cc(-c2nccn2Cc2noc(C3CCCO3)n2)cc(-n2cccn2)c1 (stereo unspecified),-0.05
COc1ccc(C(=O)c2oc3ccccc3c2NC(=O)c2ccc(F)cc2)cc1,-0.26
CCN(Cc1noc(C)n1)C(=O)c1[nH]c2ccc(C)cc2c1C,-1.47
CCCCN(CC)CCCNC(=O)Cn1nc(CC)n2c(cc3sccc32)c1=O,-1.98
Cc1c(CNC2CCCCCC2)c(C(=O)O)c(C)n1Cc1ccc(F)cc1Cl,-0.6
COCCN1C(=O)C2CCC1CN(c1nc(N)ncc1C)C2 (stereo unspecified),0.01
COc1ccc(C(=O)Oc2c(Sc3ccc(Cl)cc3)c(C)nn2C(C)(C)C)cc1OC,-0.41
COC(=O)c1c(NC(=O)C(C)Oc2ccc(Cl)cc2Cl)sc2c1CCCC2 (stereo unspecified),-0.01
CC(C)=CCN1C(=O)C2CCC1CN(C(=O)c1ccc3nc(C)[nH]c3c1)C2 (stereo unspecified),-1.26
CCc1c(C)nn(CCNC(=O)CC(c2ccccc2)c2ccco2)c1C (stereo unspecified),-0.05

# A draw from above in order of count of non-hydrogen atoms, ascending:
SMILES,fixLJ activator
COCCN1C(=O)C2CCC1CN(c1nc(N)ncc1C)C2 (stereo unspecified),0.01
CCN(Cc1noc(C)n1)C(=O)c1[nH]c2ccc(C)cc2c1C,-1.47
CC(C)=CCN1C(=O)C2CCC1CN(C(=O)c1ccc3nc(C)[nH]c3c1)C2 (stereo unspecified),-1.26
Cc1c(CNC2CCCCCC2)c(C(=O)O)c(C)n1Cc1ccc(F)cc1Cl,-0.6
COc1ccc(C(=O)c2oc3ccccc3c2NC(=O)c2ccc(F)cc2)cc1,-0.26
COc1ccc(C(=O)Oc2c(Sc3ccc(Cl)cc3)c(C)nn2C(C)(C)C)cc1OC,-0.41
